Bioassay records from PubChem.
gsp agonist: qHTS for Agonist of gsp, the Etiologic Mutation Responsible for Fibrous Dysplasia/McCune-Albright Syndrome: qHTS | 340,000 tested, 0.13% active | Potency, µM (top dose mostly 76.9 µM), without a hit: at the highest dose activation (cAMP increase), most hits filed as activators | gsp mutant cells, cAMP HTRF, 30 min; control for the full effect not named in the record; active = well fitted activation curve with a large enough effect; inconclusive = small, poorly fitted or top-dose-only effect, or another doubt; inactive = no such curve, though single readings can be large or run the other way; cell line not stated here;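 note: phosphodiesterase inhibitor Ro 20-1724 added with compounds to block cAMP breakdown; potency is the fitted concentration of half-maximal effect; nearly all actives have a fitted effect of over 60% in size; about a fifth of the inactives were tested at one dose only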
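Cells stably selected in G418 were plated at 2000/well, grown 16-24 hr, then given compounds in DMSO with the PDE inhibitor […] (300 uM solution added) for 30 min at 37C; cAMP was read by HTRF.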
Sfp PPTase inh: qHTS Assay for Inhibitors of Bacillus subtilis Sfp phosphopantetheinyl transferase (PPTase); 4'-phosphopantetheinyl transferase ffp (Bacillus subtilis), Q9F4F7; Biochemical Sfp PPTase activity, qHTS; Potency, µM, without a hit: max response, negative = inhibition, usual class: inhibitors; 310,000 tested, 3.5% active; AID 1490, 2009; active = well fitted inhibition curve with a large enough effect; inconclusive = small, poorly fitted or top-dose-only effect, or another doubt; inactive = no such curve, though single readings can be large or run the other way;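 note: the enzyme is Sfp with the accession as filed and its product quenches rhodamine fluorescence; potency is the fitted concentration of half-maximal effect; 0% = enzyme reaction without inhibitor and -100% = no enzyme wells; top concentration of the series not given in the record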
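With Hepes-Na pH 7.6 buffer containing 10 mM MgCl2, Sfp (15 nM) modified BHQ-2-YbbR (12.5 uM) using rhodamine-CoA (5 uM). Two reads 30 minutes apart at 525/598 nm yielded each well's rate.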
Menin-MLL FL inh: qHTS Assay for Inhibitors Targeting the Menin-MLL Interaction in MLL Related Leukemias: Competition With Fluorescein Labeled MLL-derived Peptide; FP activity change, % at 61.4 µM; 290,000 tested, under 10 active; Fluorescence polarization, fluorescein-MLL peptide displacement from menin; AID 1766, 2009; inconclusive = falling polarisation curve, or a change in total fluorescence; inactive = total fluorescence flat and polarisation flat or rising; no compound was filed as active; the % refers to the polarisation; negative = inhibition;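 note: % of control where 0% means no effect; inhibitors lower the polarisation; unlabelled MLL peptide was the positive control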
gsp antag: qHTS for Antagonists of gsp, the Etiologic Mutation Responsible for Fibrous Dysplasia/McCune-Albright Syndrome: qHTS; 340,000 tested, 0.4% active; gsp-mutant cells, cAMP HTRF, 30 min; control for the full effect not named in the record; Potency, µM (highest dose often 76.9 µM), for inactives: top-dose activity change, negative = inhibition, usual class: inhibitors; AID 624288, 2012; active = falling curve of any shape with a large fitted effect; inconclusive = falling curve, mostly with a smaller effect; inactive = flat or rising curve; cell line not stated here;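 note: intracellular cAMP measured with PDE inhibitor Ro 20-1724 present during compound exposure; potency is the fitted concentration of half-maximal effect; % is set by controls: 0 for no effect and ±100 for the full control effect; nearly all actives have a fitted effect of over 65% in size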
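Measurement of cellular cAMP by homogeneous time-resolved fluorescence following a 30 min compound exposure at 37C. The PDE inhibitor […] was present throughout; the assay buffer was DPBS with 0.05% BSA and 0.005% Tween 20.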
TRPV1 potentiator: HTS Assay for Compounds that Act as Potentiators of the Vanilloid Receptor 1; TRPV1-expressing cells, Fluo-8 calcium influx, capsaicin EC20 potentiation; host cell line not named in the record; control for the full effect not named in the record; potentiation, % at 8.33 µM; 320,000 tested, 0.02% active; AID 540277, 2011; active means potentiation above 80%; inconclusive means 30% to 80%; inactive means below 30%; note: 0% is about no effect
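Cells expressing TRPV1 were dye-loaded with Fluo-8 and read kinetically: 10 s baseline, 3 min after compound (agonist portion), then 2 min after EC20 capsaicin (allosteric enhancer portion). Calcium-bound dye fluorescence at 480/520 nm.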
ClpP mod: qHTS Assay for Activators of ClpP | purified B. subtilis ClpP, FRET peptide cleavage, 20 min | AID 651965, 2013 | 340,000 tested, 1.9% active | Potency, µM (series often up to 57.5 µM), for inactives: at the highest dose activity change, negative = active | ATP-dependent Clp protease proteolytic subunit (Bacillus subtilis (strain 168)), P80244; active = well fitted falling curve with a large enough effect; inconclusive = small, poorly fitted or top-dose-only effect; inactive = no such curve, though single readings can be large or run the other way; note: potency is the fitted concentration of half-maximal effect; the source files actives as falling curves though it sought activators and does not explain the sign; nearly all actives have a fitted effect of over 65% in size; many hits overshoot -100%
Target sequence (P80244 whole entry, looked up): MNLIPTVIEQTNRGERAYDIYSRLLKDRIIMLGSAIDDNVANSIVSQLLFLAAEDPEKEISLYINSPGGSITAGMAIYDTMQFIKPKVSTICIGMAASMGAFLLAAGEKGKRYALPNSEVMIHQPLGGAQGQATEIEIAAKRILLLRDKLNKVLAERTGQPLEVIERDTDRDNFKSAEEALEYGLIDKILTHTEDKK
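FRET quenching reversal measured ClpP activation: 10 microg/mL B. subtilis ClpP at pH 8 with the FRET-FV decapeptide, read at 430 nm after 320 nm excitation. The 20-min minus 0-min signal was scaled between DMSO/no-enzyme wells and ADEP (5.8 microM final).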
TRPML1 blocker: qHTS for Inhibitors of the Human Mucolipin Transient Receptor Potential 1 (TRPML1); 390,000 tested, 0.02% active; activity change, negative = inhibition, % (no concentration beside the values); TRPML1-inducible cells, Ca2+ dye fluorescence, FDSS; stronger effect = lower value; inhibition of EC80 agonist-evoked calcium signal; AID 624415, 2012; in the data active means activity change below about -50%; inconclusive means about -30% to -50%; inactive means above about -30%;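 note: stimulus is agonist 54-4 at its EC80 concentration; % is set by controls: 0 for no effect and ±100 for the full control effect; compound concentration not given in the record; the text of the record puts the active cut at -80%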
Target sequence (Q9GZU1 whole entry, looked up): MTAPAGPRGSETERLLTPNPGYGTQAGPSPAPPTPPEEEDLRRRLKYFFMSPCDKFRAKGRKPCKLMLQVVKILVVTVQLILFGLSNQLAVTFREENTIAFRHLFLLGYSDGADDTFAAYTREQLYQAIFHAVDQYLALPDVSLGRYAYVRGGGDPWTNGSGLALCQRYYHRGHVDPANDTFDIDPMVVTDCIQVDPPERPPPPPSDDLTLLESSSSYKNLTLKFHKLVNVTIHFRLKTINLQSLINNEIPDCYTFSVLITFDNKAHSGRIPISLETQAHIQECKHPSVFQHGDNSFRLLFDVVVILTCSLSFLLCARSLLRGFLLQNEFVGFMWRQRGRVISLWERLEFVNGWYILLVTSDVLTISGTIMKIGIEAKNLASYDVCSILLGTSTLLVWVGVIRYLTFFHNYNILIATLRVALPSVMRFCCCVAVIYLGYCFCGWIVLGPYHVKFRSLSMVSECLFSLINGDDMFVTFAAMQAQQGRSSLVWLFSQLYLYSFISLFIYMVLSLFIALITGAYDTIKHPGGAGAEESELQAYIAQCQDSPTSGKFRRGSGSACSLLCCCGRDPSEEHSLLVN
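Calcium fluorescence in TRPML1-DL cells induced overnight with Tet: a 110 s read after compound pin addition, then a 110 s antagonist read after challenge with 54-4 at 4 uM final (EC80).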
* marks the source's active call; other numbers are inactive results; [ ] = remark or other dose.

For COc1ccccc1NC(=O)Nc1ccc(C(N)=O)cc1 the results were gsp agonist -1.7%, Sfp PPTase inh 15.7%, Menin-MLL FL inh 5.4, gsp antag 3.7%, TRPV1 potentiator 12.7, ClpP mod -0.3% and TRPML1 blocker -13.7.
For O=C1CC(C(F)(F)C(F)(F)C(F)(F)F)=Nc2ccccc2N1 the results were gsp agonist 5.3%, Sfp PPTase inh 24.8%, Menin-MLL FL inh -1.4, gsp antag 5.7%, TRPV1 potentiator -1.4, ClpP mod 0.9% and TRPML1 blocker 37.4.
CCCNC(=O)c1cc(S(=O)(=O)N2CCc3ccccc32)cn1C was read as gsp agonist -8.1%, Sfp PPTase inh 3.6%, Menin-MLL FL inh -3.0, gsp antag -11.6%, TRPV1 potentiator -19.9, ClpP mod 0.1% and TRPML1 blocker -5.3.
`O=C(CCNC(=O)N1CC(=O)Nc2ccccc21)NCc1cccc(Cl)c1` gave gsp agonist 9.8%, Sfp PPTase inh 18.8%, gsp antag 8.1%, TRPV1 potentiator 8.7, ClpP mod -3.0% and TRPML1 blocker 12.2.
Screening Cc1ccc(-n2nc(C)c3c(C)c(CCC(=O)NCc4ccco4)c(C)nc32)cc1 returned gsp agonist -36.7%[inhibitor], Sfp PPTase inh -10.2%, Menin-MLL FL inh 0.4, gsp antag -6.9%, TRPV1 potentiator -13.3, ClpP mod 4.8% and TRPML1 blocker 16.2.
For Cc1csc(NC(=O)CSc2nnc(CCNC(=O)c3ccc(Cl)c(Cl)c3)n2C)n1 the results were gsp agonist -31.1%, Sfp PPTase inh -5.9%, Menin-MLL FL inh 0.8, gsp antag 2.1%, TRPV1 potentiator -3.8, ClpP mod -2.4% and TRPML1 blocker 4.7.
Screening O=C(CCc1nc2ccccc2c(=O)[nH]1)OCc1nnc(-c2ccccc2)o1 returned gsp agonist -2.9%, Sfp PPTase inh -0.4%, Menin-MLL FL inh 1.6, gsp antag 3.8%, TRPV1 potentiator -11.1, ClpP mod -4.4% and TRPML1 blocker -6.8.
Screening CC1(C)N([O-])C(c2ccccc2)=C[N+](=O)C1(C)C returned gsp agonist 9.4%, Sfp PPTase inh -0.6%, Menin-MLL FL inh -1.5, gsp antag -1.9%, TRPV1 potentiator 15.3, ClpP mod -4.8% and TRPML1 blocker -15.1.
CSCc1ccc(C(=O)NCc2ccc(C)cc2)cc1 was read as gsp agonist -22.1%, Sfp PPTase inh -12.1%, Menin-MLL FL inh 4.9, gsp antag 25.2%, TRPV1 potentiator -15.6, ClpP mod -1.1% and TRPML1 blocker 9.3.
CCc1nnc(NC(=O)c2ccc(-c3cccc(C(F)(F)F)c3)o2)s1 was read as gsp agonist 4.4%, Sfp PPTase inh 14.4%, Menin-MLL FL inh 1.7, gsp antag 4.8%, TRPV1 potentiator 8.2, ClpP mod -12.8% and TRPML1 blocker 8.0.
Screening N/C(=N\NS(=O)(=O)c1ccccc1C(F)(F)F)c1ccccn1 returned gsp agonist 16.3%, Sfp PPTase inh 9.9%, Menin-MLL FL inh 0.5, gsp antag 4.7%, TRPV1 potentiator -0.8, ClpP mod 1.1% and TRPML1 blocker -29.5.
For Cn1cnnc1SCC(=O)Nc1ccc(Br)cc1F the results were gsp agonist 8.5%, Sfp PPTase inh 2.5%, Menin-MLL FL inh 4.1, gsp antag 9.6%, TRPV1 potentiator -0.4, ClpP mod -1.6% and TRPML1 blocker -12.1.
Screening Cn1ccnc1SCC(=O)c1c(N)n(C)c(=O)n(C)c1=O returned gsp agonist inconclusive, gsp antag 11.2% and TRPML1 blocker 26.9.
Screening O=c1[nH]c2ccccc2cc1-c1noc(-c2cccnc2)n1 returned gsp agonist 0.2%, Sfp PPTase inh 6.0%, Menin-MLL FL inh 3.3, gsp antag 5.4%, TRPV1 potentiator 10.5, ClpP mod 31.6µM* and TRPML1 blocker 11.4.
Cc1nc(C)c(C(=O)C2=C(O)C(=O)N(CCCN(C)C)C2c2ccco2)s1 (stereo not given) was read as Sfp PPTase inh -26.3%, Menin-MLL FL inh -0.9 and TRPV1 potentiator -9.6.
CCN1C(=O)C(C)S/C1=N\S(=O)(=O)c1ccc(F)cc1 (stereo not given) was read as gsp agonist inconclusive, Sfp PPTase inh 16.2%, Menin-MLL FL inh 5.7, gsp antag -6.9%, TRPV1 potentiator 10.5, ClpP mod -1.4% and TRPML1 blocker 19.7.
For Clc1ccc(OCCN2CCOCC2)cc1 the results were gsp agonist -16.1%, Sfp PPTase inh 8.6%, Menin-MLL FL inh -0.6, gsp antag 8.7%, TRPV1 potentiator -1.6, ClpP mod 0.6% and TRPML1 blocker -3.4.
C=CCSc1ncccc1C(=O)NCCc1ccc(Cl)cc1 was read as gsp agonist -0.7%[15.4 µM], Sfp PPTase inh -1.5%, Menin-MLL FL inh 3.0, gsp antag inconclusive, TRPV1 potentiator 11.5, ClpP mod -0.2% and TRPML1 blocker -0.3.
For Nn1c(SCC(=O)Nc2ccc(F)c(F)c2)nnc1C1CCCCC1 the results were gsp agonist -19.8%, Sfp PPTase inh 10.6%, Menin-MLL FL inh 3.2, gsp antag -0.5%, TRPV1 potentiator -5.3, ClpP mod -0.1% and TRPML1 blocker -1.6.
For COc1cc2c(cc1OC)C1(NCC2)C(=O)Nc2ccccc21 (stereo not given) the results were gsp agonist -9.4%, Sfp PPTase inh 4.6%, Menin-MLL FL inh 0.2, gsp antag 2.3%, TRPV1 potentiator 3.8, ClpP mod -3.0% and TRPML1 blocker -2.7.
CC(=O)Cn1cnc2scc(-c3ccc(C)c(C)c3)c2c1=O was read as gsp agonist -14.5%, Sfp PPTase inh -2.4%, Menin-MLL FL inh 0.6, gsp antag -9.4%, TRPV1 potentiator -4.3, ClpP mod -4.9% and TRPML1 blocker -12.3.
`Cc1cccc(C)c1OCC1CNC(=O)O1` (stereo not given) gave gsp agonist 2.4%, Sfp PPTase inh 17.3%, Menin-MLL FL inh -3.0, gsp antag 10.5%, TRPV1 potentiator 4.1 and TRPML1 blocker 12.8.
`Cc1ccc(C2(C)NC(=O)N(CC(=O)N3CCN(S(=O)(=O)c4cccs4)CC3)C2=O)cc1` (stereo not given) gave gsp agonist -5.4%[15.4 µM], gsp antag -3.3%, TRPV1 potentiator -2.0, ClpP mod -4.8% and TRPML1 blocker 0.9.
For O=[N+]([O-])c1ccc(C[n+]2cc(-c3ccc(Cl)c(Cl)c3)n3c2CCCCC3)cc1 the results were gsp agonist 4.4%, Sfp PPTase inh 0.2%, Menin-MLL FL inh -0.3, gsp antag 9.5%, TRPV1 potentiator -4.0, ClpP mod 0.3% and TRPML1 blocker -21.8.
Cc1ccc(S(=O)(=O)NCc2nc3ccccc3[nH]2)cc1 was read as gsp agonist 12.7%, Sfp PPTase inh 19.5%, Menin-MLL FL inh 1.4, gsp antag 0.2%, TRPV1 potentiator -3.4, ClpP mod -8.5% and TRPML1 blocker 11.1.
COCCOC(=O)C1=C(C)NC2=C(C(=O)CC(C)(C)C2)C1c1cc2c(cc1Br)OCO2 (stereo not given) was read as gsp agonist 28.4%, Sfp PPTase inh -3.3%, Menin-MLL FL inh 1.0, gsp antag -4.6%, ClpP mod -18.8% and TRPML1 blocker -8.1.
For CCOC(=O)/C(C#N)=C\c1ccc2c(c1)OCO2 the results were gsp agonist 13.8%, gsp antag 9.7%, ClpP mod -3.2% and TRPML1 blocker -0.5.
CN1CCN(C(=O)C2CCC(=O)N(Cc3cccc(C(F)(F)F)c3)C2)CC1 (stereo not given) was read as gsp agonist 9.3%, Sfp PPTase inh 3.7%, gsp antag 12.3%, TRPV1 potentiator -12.1, ClpP mod -2.0% and TRPML1 blocker -9.0.
For CCc1cc2c(=O)[nH]c(-c3ccncc3)nc2s1 the results were gsp agonist 42.2%, Sfp PPTase inh -10.1%, Menin-MLL FL inh 0.9, gsp antag -2.3%, TRPV1 potentiator -9.2, ClpP mod inconclusive and TRPML1 blocker 23.1.
For COc1cc(OC)c(NC(=O)Cn2cccc2)cc1Cl the results were gsp agonist 16.6%, Sfp PPTase inh 7.3%, Menin-MLL FL inh -1.1, gsp antag 7.7%, TRPV1 potentiator -3.2, ClpP mod -2.4% and TRPML1 blocker 8.9.
For CCN1CCN(c2nc(Nc3ccc(C)c(C)c3)nc(N)c2[N+](=O)[O-])CC1 the results were gsp agonist -5.3%[15.4 µM], Sfp PPTase inh 10.7%, gsp antag 17.7%, TRPV1 potentiator -10.8, ClpP mod -1.3% and TRPML1 blocker 6.6.
O=C(Nc1cccc(C(F)(F)F)c1)C1(c2ccccc2)CC1 was read as gsp agonist inconclusive, Sfp PPTase inh 1.1%, Menin-MLL FL inh 3.7, gsp antag -15.8%, TRPV1 potentiator -6.1, ClpP mod 0.8% and TRPML1 blocker -13.3.
CNC(=O)c1c(NC(=O)CCS(=O)(=O)c2ccc(F)cc2)sc(C)c1C was read as gsp agonist -25.3%, gsp antag 3.6%, TRPV1 potentiator -6.9, ClpP mod -0.7% and TRPML1 blocker -1.4.
For O=C(CCCN1C(=O)/C(=C\c2cccs2)SC1=S)Nc1ccc(O)cc1 the results were gsp agonist -8.2%, Sfp PPTase inh 22.9%, gsp antag -12.8%, TRPV1 potentiator -3.8 and TRPML1 blocker 6.3.
COn1c(-c2ccccc2)nc2ncccc21 was read as gsp agonist 0.5%, Sfp PPTase inh 12.0%, Menin-MLL FL inh 2.0, gsp antag 6.3%, TRPV1 potentiator 2.9 and TRPML1 blocker -3.3.
